Sa growth 42C: blocks Staphylococcus aureus growth. relative growth, % (concentration not given with the values). S. aureus RN4220 growth, OD600, 20 h, 42 °C; stronger effect = lower value. 170,000 compounds, 0.53% hits;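 active means growth at 42 °C up to 50% and 20 or more points under that at 30 °C, or under 10% at both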;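 further: 300 nL library stock went into each well; scaled to the means of positive and negative controls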
HCMV UL50-53 inh: cytomegalovirus nuclear egress complex inhibition. HTRF UL50-UL53 interaction, normalized percent inhibition. inhibition, % (concentration not given with the values). 190,000 compounds, 0.15% hits. AID 1918969;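 active means both replicates at 50% or more, plus weaker picks with an unusually low signal ratio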;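 further: stock transfer was 100 nL into about 20 µL; 0% = negative control wells and 100% = wells with untagged competitor protein; inactives centre near -12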
GIV Gai3 FP: blocks GIV peptide binding to rat Galpha-i3 | Galpha-i3/FITC-GIV peptide fluorescence polarization, 90 min; stronger effect = lower value; scaled: aluminum fluoride 0%, vehicle 100% | percent of control (FP), % (concentration not given with the values) | 210,000 compounds, 0.42% hits | AID 1224905;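 active means replicate mean at 85% of control or lower, very high polarization wells dropped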;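 further: wells of about 15 µL received 100 nL stock; the first replicate is given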
Target sequence (P08753 whole entry, looked up): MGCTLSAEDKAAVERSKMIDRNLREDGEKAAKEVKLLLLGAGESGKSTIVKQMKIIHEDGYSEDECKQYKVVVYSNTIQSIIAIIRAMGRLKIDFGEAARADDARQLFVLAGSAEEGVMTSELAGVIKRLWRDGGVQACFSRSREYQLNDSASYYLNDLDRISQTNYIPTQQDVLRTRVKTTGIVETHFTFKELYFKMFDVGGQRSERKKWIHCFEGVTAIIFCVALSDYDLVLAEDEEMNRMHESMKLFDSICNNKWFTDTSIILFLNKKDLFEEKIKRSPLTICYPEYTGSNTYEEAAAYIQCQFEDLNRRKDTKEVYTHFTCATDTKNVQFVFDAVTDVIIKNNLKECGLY
Sa growth 42C second temp: further read-out of Sa growth 42C, marked with its call; relative growth, %; measured here: growth at 30 °C;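 optical density after 20 h as mean of two plates; 100% = untreated growth and lower means inhibition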
Numbers without * were called inactive; nt = not tested or not shown; & = joins results of further samples.

SMILES	Sa growth 42C	Sa growth 42C second temp	HCMV UL50-53 inh	GIV Gai3 FP
Nc1nc(-c2ccc(Cl)c(Cl)c2)cs1	110	91	-25	nt
C=C(C)C1CC=C(C(=O)O)CC1 (centres undefined)	nt	nt	-14	100
CCOC(=O)C1CCN(C(=O)c2nn(-c3ccc(OC)cc3)c(=O)c3c2c2ccccc2n3C)CC1	100	87	-30	101
Cc1cccc(C)c1NC(=O)CN(C)c1ccc(S(=O)(=O)N(C(C)C)C(C)C)cn1	84	89	9	nt
COc1ccc(C2=NN(C(=O)CCCC(=O)O)C(c3ccc(OC)cc3)C2)cc1 (centres undefined)	nt	nt	-45	100
O=C(CSC1=NC(=O)C(c2ccccc2)C(=O)N1)Nc1nc2ccccc2s1 (centres undefined)	86	85	-41	103
COC(=O)c1ccc(N2CCN(C)CC2)c(NC(=O)c2ccc(C#N)cc2F)c1	99	106	2	107
CCCn1cc(S(=O)(=O)c2ccc(C)c(C)c2)c(=O)c2cc(F)c(N3CCC(C)CC3)cc21	85	87	nt	103
Nn1c(Cc2ccccc2)nc2sc3c(c2c1=O)CCCC3	112	91	nt	103
CCC1CCCCN1C(=O)c1cc(-c2ccccc2OC)on1 (centres undefined)	88	84	6	97
CN(C)C(=O)Cn1nc(C(=O)O)c2ccccc2c1=O	97	104	-13	nt
Cc1ccc(S(=O)(=O)n2nc(C)c(S(=O)(=O)N3CCCC(C)C3)c2C)cc1C (centres undefined)	nt	nt	-24	103
COc1ccc(C(=O)CSc2n[nH]c(=O)n2C(C)c2ccccc2)cc1 (centres undefined)	105	81	-16	100
CCC(C(=O)NCc1ccccc1OC)n1nc(C)n2c(cc3sccc32)c1=O (centres undefined)	123	79	-33	106
CCc1ccc(NC(=O)CCNS(=O)(=O)c2ccc3c(c2)CCCC(=O)N3)cc1	108	88	nt	112
CC(C)Oc1ccc(C(=O)NCC(c2ccc(N(C)C)cc2)N2CCc3ccccc32)cc1 (centres undefined)	86	88	nt	102
CCOc1ccc(-c2ncccc2O)cc1	79	99	-31	98
O=C(NCc1ccc(Cl)cc1)c1ccc(-n2cnnn2)cc1	98	75	-30	nt
CCN=C1NC(=O)C(CC(=O)NCCc2ccccc2)S1 (centres undefined)	71	89	-31	nt
CCCCn1c(=O)c2sccc2n2c(CCC(=O)NC3CCCCC3)nnc12	nt	nt	-23	94
Cc1ccccc1NC(=O)/C=C\C(N)=O	-0.5*	-0.5*	-8	107
O=C(Nc1ccc2oc(-c3cccc4c(Br)cccc34)nc2c1)c1ccc(Br)cc1	101	95	-37	105
Cc1ccc(Nc2nnc(-c3ccc(C)c(S(=O)(=O)N4CCCCC4)c3)c3ccccc23)cc1	99	88	10	100
COc1ccc(/C=N/N2CCOCC2)cc1O	84	86	-19	nt
O=C(Nc1ccc(Cl)cc1)OC1CCSC1 (centres undefined)	90	70	-4	103

Entries shown so far with fluorine:
SMILES	Sa growth 42C	Sa growth 42C second temp	HCMV UL50-53 inh	GIV Gai3 FP
COC(=O)c1ccc(N2CCN(C)CC2)c(NC(=O)c2ccc(C#N)cc2F)c1	99	106	2	107
CCCn1cc(S(=O)(=O)c2ccc(C)c(C)c2)c(=O)c2cc(F)c(N3CCC(C)CC3)cc21	85	87	nt	103

Next section
SMILES	Sa growth 42C	Sa growth 42C second temp	HCMV UL50-53 inh	GIV Gai3 FP
COc1cc(NC(=O)c2ccc3c(=O)n4c(nc3c2)CCCCC4)cc(OC)c1OC	100	91	9	100
COc1cccc(C(=O)Nc2c(C(=O)N3CCN(c4ccc(F)cc4)CC3)oc3ccccc23)c1	88	94	nt	102
Cc1cc2c(cc1S(=O)(=O)CCC(=O)Nc1ccc(F)cc1F)OCC(=O)N2	nt	nt	-4	107
CCOC(=O)c1cc(-c2csc(CS(=O)(=O)c3ccccn3)n2)on1	88	84	-31	103
CCN(CC)c1ccc(NC(=O)Cn2cc3c(n2)CCCC3)c(C)c1	96	94	-8	105
Cc1c(C(=O)Nc2nccs2)nnn1-c1ccc2noc(-c3ccc(Br)cc3)c2c1	nt	nt	-10	101
CCOC(=O)c1c(C)n(C)c2ccc(OCC(O)CN3C(=O)c4ccccc4S3(=O)=O)cc12 (centres undefined)	101	74	-24	101
COc1ccc(-c2cc(C(=O)NCC(c3ccc(OC)cc3)N3CCCC3)no2)cc1 (centres undefined)	nt	nt	-22	107
CC(C)Oc1ccc(CNC(=O)c2ccc(CS(=O)Cc3ccccc3Cl)o2)cc1 (centres undefined)	95	90	nt	107
CC1CN(c2ccc(Cl)cc2)c2nc3c(c(=O)[nH]c(=O)n3C)n2C1 (centres undefined)	nt	nt	-5	103
COC(=O)C1=C(C)Nc2c(c(=O)n(C)c(=O)n2C)C1c1ccc(Br)cc1 (centres undefined)	97	80	-9	104
COc1ccc2[nH]c(=O)c(CN(C(C)=O)c3cccc(C)c3)cc2c1	100	89	2	nt
Cc1cc(C)c(Cn2c3ccccc3c3cnn(CC(=O)NC4CCC(C)CC4)c(=O)c32)c(C)c1 (centres undefined)	90	102	6	101
CSc1cccc(NC(=S)N(CCc2ccncc2)C(C)C)c1	101	89	nt	105
Cc1cccc(NS(=O)(=O)c2ccc(C(=O)NC3=NCCS3)cc2)c1C	92	73	-14	nt
CCN=C1NC(=NCC)c2ccccc21	98	91	-59	nt
CCOC(=O)c1c(NC(=O)CSc2nc(-c3ccc(OC)cc3)cc(C(F)(F)F)n2)sc(C)c1C	95	96	-14	104
CCCCNC(=O)c1cc(=O)n(CCC)c2c1c(=O)n(CCC)c(=O)n2C	nt	nt	-16	102
O=C(CN1C(=O)C2CCCCN2c2ccc(C(=O)N3CCCC3)cc21)NCC1COCCO1 (centres undefined)	nt	nt	-40	100
CC1CCN(C(=O)Cn2cc(SCC(=O)N3CCCC3)c3ccccc32)CC1	nt	nt	0	110
CCOc1ccc(OCC(=O)NCCS(=O)(=O)N2CCN(c3ccc(F)cc3)CC2)cc1	78	91	nt	104
O=C(CSc1nnc(-c2ccccc2)n1-c1ccccc1)NC1CC1	82	84	-16	nt
CCCCCCC(=O)Nc1ccc2nc3c(=O)n(C)c(=O)n(C)c3nc2c1C	92	83	-5&-8	104&105
CCOc1ccc(S(N)(=O)=O)cc1-c1nc(C(C)C)no1	nt	nt	-12	104
COc1ccccc1N1CCN(c2nc3ccccc3cc2-c2noc(C)n2)CC1	nt	nt	6	103

One compound at a time (already shown).
`COc1ccc(/C=N/N2CCOCC2)cc1O` across the screens: Sa growth 42C: 84; Sa growth 42C second temp: 86; HCMV UL50-53 inh: -19; GIV Gai3 FP: nt
`CCC(C(=O)NCc1ccccc1OC)n1nc(C)n2c(cc3sccc32)c1=O` (centres undefined) across the screens: Sa growth 42C: 123; Sa growth 42C second temp: 79; HCMV UL50-53 inh: -33; GIV Gai3 FP: 106

The list continues:
SMILES	Sa growth 42C	Sa growth 42C second temp	HCMV UL50-53 inh	GIV Gai3 FP
CC(C)N(Cc1ccc(N(C)C)cc1)C(=O)c1sc2ccccc2c1Cl	90	84	-19	106
Cc1ccc(-n2nnnc2SCC(=O)NCCc2ccccc2)cc1C	94	94	-12	107
COc1cc(C(=O)Nc2ccc(-c3nc4cc(C)c(C)cc4o3)cc2)cc(OC)c1OC	90	83	-58	103
COc1cccc(C(=O)NCc2cn3cccc(C)c3n2)c1	103	88	-5	103
CCOC(=O)c1ccccc1NC(=O)c1c(-c2ccccc2)oc2ccc(OCC)cc12	nt	nt	-2	104
O=C(CSc1c2c(nc3ccc(Cl)cc13)CCCC2)N1CCN(c2ccc(Cl)cc2)CC1	101	87	-31	107
CCc1nc(SC)ncc1C(=O)NCc1ccc(OC)cc1	97	97	-10	118
Cc1nc2sc3ccccc3n2c(=O)c1S(=O)(=O)Nc1ccc(Br)cc1	nt	nt	-4	103
CCC(C)(C)C1CCc2oc3ccc(NS(=O)(=O)c4cccs4)cc3c2C1 (centres undefined)	65	89	nt	99
C[C@H](NC(N)=O)C(=O)N1CCc2ccccc21	100	92	-4	nt
COc1ccc(OCC(=O)Nc2nnc(SCc3cc(=O)n4oc(C)cc4n3)s2)cc1	nt	nt	5	98
Cn1[nH]c(=O)c2c(C(F)(F)F)ccnc21	98	74	3	111
Cc1ccc2[nH]c(=S)oc2c1	91	91	22	107
CCc1nnc(NC(=O)COc2cc(C)c(Cl)c(C)c2)s1	117	80	nt	107
N#Cc1ccccc1COC(=O)CCC(=O)c1cccs1	95	93	4	nt
O=C(CSc1nc(-c2ccco2)nc2cc(=O)[nH]n12)Nc1ccccc1Cl	68	81	nt	99
COc1ccc2c(COC(=O)c3ccc(C)c(S(=O)(=O)N4CCOCC4)c3)cc(=O)oc2c1	84	88	-32	nt
O=c1[nH]cnc2c1cnn2-c1ccccc1	109&81	92&89	-16	101&101
Cc1cccc(C2=Nc3ccccc3N=C(c3ccccc3O)C2)c1	nt	nt	2	110&90
NNC(=O)c1nc(-c2ccccc2)n2c1CCCCC2	116	92	-32	nt
COc1ccccc1N1CCN(c2ccc(=O)n(CC(=O)Nc3ccc4c(c3)OCO4)n2)CC1	nt	nt	-40	109
O=C(NCC(c1cccnc1)N1CCN(c2ccccc2)CC1)C1CC1 (centres undefined)	nt	nt	-14	110
CCSc1nc2c([nH]c3ccccc32)c(=O)n1-c1ccc(F)cc1	102	97	nt	101
CCNc1c(NC(=O)Nc2ccc(CC)cc2)c(=O)oc2ccccc12	110	87	0	107
Oc1ccccc1CNC1CCN(Cc2ccccc2)CC1	115	97	-25	nt
Going on with the list.
SMILES	Sa growth 42C	Sa growth 42C second temp	HCMV UL50-53 inh	GIV Gai3 FP
COC(=O)c1noc2ncnc(Nc3ccc(Br)cc3F)c12	nt	nt	-15	100
COc1ccc(OCC(=O)N2CCN(c3cccc(C(F)(F)F)c3)CC2)cc1	96	104	3	nt
CC1CCN(c2ncnc3c2cnn3C)CC1	100	69	-19	100&99
COc1ccc(N(Cc2cccs2)C(=O)c2ccc(OCC(C)C)cc2)cc1	99	92	-7	106
Cc1ccc(C2=NS(=O)(=O)N(C)C(C(=O)Nc3sc4c(c3C(N)=O)CCCC4)=C2)cc1	101	87	nt	89
CCOC(=O)c1cc(-c2ccc(C)cc2)n(CCC(=O)Nc2ccc(C(C)C)cc2)c1C	102	82	-25	98
CCOC(=O)COc1ccc(C)cc1C(=O)c1ccn2nc(-c3ccccc3)cc2n1	nt	nt	-20	100
COc1ccc(N2CCN(c3ncccc3-c3nc(-c4ccccc4C)no3)CC2)cc1	104	89	-8	105
Cc1ccc(-c2cccc(-n3c(C)ccc3-c3cccc(N)c3)c2)o1	92	94	nt	106
Cc1ccc(Nc2c(O)[nH]c(=O)n2N)cc1	87	85	-40	nt
Cc1cccc(N(CC(=O)Nc2cccc(Cl)c2C)S(C)(=O)=O)c1C	105	88	-32	104
CC(C)S(=O)(=O)c1ccc(N2CCN(c3ncccn3)CC2)nn1	nt	nt	-31	96
CCCCSC1=Nc2ccccc2NC(CC(=O)OC)=C1	nt	nt	-8	105
Cc1ccc(CCNC(=O)CCS(=O)(=O)c2cc3c(cc2Cl)NC(=O)CO3)cc1	110	97	nt	98
CC1CCN(C(=O)Cn2cc(SCc3cccc(F)c3)c3ccccc32)CC1	112	105	nt	106
CCOc1ccc(OCC)c(NC(=O)c2cc3ccccn3n2)c1	88	90	nt	105
O=C(NCc1cccnc1)C1CCN(Cc2cc3ccccc3n2Cc2ccccc2)CC1	119	99	nt	102&100
O=C(Cc1ccccc1)NC1CCCCC1NC(=O)Cc1ccccc1 (centres undefined)	104	93	-8	nt
CN1CCc2nc(NC(=O)c3cccc(Cl)c3)sc2C1	nt	nt	9	103
Cc1cc(NC(=O)c2ccc(=O)[nH]c2)ccc1Br	96	96	-14	nt
COc1cc(C)ccc1OCCSc1nc2ccc(NC(=O)c3ccc4c(c3)OCO4)cc2s1	99	89	-10	97
Cc1cc2oc(=O)cc(C)c2cc1N	89	89	-42	100
O=C(COC(=O)c1ccco1)NC1CC1	83	100	16	nt
CCCc1nn2c(=O)cc(COC(=O)c3ccccc3NC(=O)C3CCCCC3)nc2s1	87	87	nt	98
CN(Cc1ccccc1)C(=O)CN1C(=O)c2ccccc2S1(=O)=O	105	101	4	nt
More results:
SMILES	Sa growth 42C	Sa growth 42C second temp	HCMV UL50-53 inh	GIV Gai3 FP
CC(=O)Nc1cc(C(=O)Nc2ccc3c(c2)N(C)C(=O)c2ccccc2S3)ccc1C	103	85	nt	103
Cc1ccc(C(O)(C(F)(F)F)C(F)(F)F)o1	96	98	2	139
COc1ccc(C2=NN(C(=O)CSCc3ccco3)C(c3cccc(OC)c3OC)C2)cc1 (centres undefined)	105	85	nt	89
CC1C/C(=C\C=C\N(C)C)C(=O)/C(=C/C=C/N(C)C)C1 (centres undefined)	74	71	-46	140
CCSC(=O)NCc1ccccc1	106	83	-403	99
CC(C)n1cnc(S(=O)(=O)N2CCCC(C(=O)NC3CCCCC3)C2)c1 (centres undefined)	nt	nt	4	104
c1ccc(-c2nnc(CN3CCCCC3)o2)cc1	100	86	-12&10	105&108

A different layout for some results above:
Value order – Sa growth 42C	Sa growth 42C second temp	HCMV UL50-53 inh	GIV Gai3 FP
> COc1ccc(C2=NN(C(=O)CSCc3ccco3)C(c3cccc(OC)c3OC)C2)cc1 (centres undefined)
  105	85	nt	89
> CC1C/C(=C\C=C\N(C)C)C(=O)/C(=C/C=C/N(C)C)C1 (centres undefined)
  74	71	-46	140
> CCSC(=O)NCc1ccccc1
  106	83	-403	99
> CC(C)n1cnc(S(=O)(=O)N2CCCC(C(=O)NC3CCCCC3)C2)c1 (centres undefined)
  nt	nt	4	104
